Screens: PubChem, Broad Institute
STK33 kinase inh – inhibitors of purified STK33 kinase, primary screen, biochemical, ADP-Glo luminescence, homogeneous, cell-free; inhibition, % at 10 µM; MBP phosphorylation; Serine/threonine-protein kinase 33 (Homo sapiens), Q9BYT3; 320,000 compounds, 0.073% hits;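 active = inhibition at or above 25%, using the most active replicate where run in duplicate; inactive = inhibition below 25%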
An asterisk follows results filed as active.

SMILES	STK33 kinase inh
COC(=O)c1ccc(N2C(=O)CC(N3CCC(n4c(=O)[nH]c5ccccc54)CC3)C2=O)cc1 (stereo not given)	-1.0
Cn1c(N)c(C(=O)COC(=O)Cc2ccccc2)c(=O)n(C)c1=O	0.4
CN1C(=O)NC(=O)/C(=C\c2ccc([N+](=O)[O-])o2)C1=O	1.1
O=c1[nH]c(=O)n(Cc2ccccc2)c(O)c1C=NCCN1CCNCC1	-1.7
O=C(c1cc2cc3ccc(Cl)cc3nc2o1)N1CCC2(CC1)OCCO2	-1.6
FC(F)(F)c1ccccc1CNCCc1c[nH]c2ccccc12	0.2
CCc1ccc2nc(N3CCC(C(=O)N4CCC5(CC4)OCCO5)CC3)sc2c1	0.0
COc1ccc2[nH]cc(CCN)c2c1	-2.1
CC(=O)Nc1ccc(N=Cc2c(O)n(Cc3ccco3)c(=O)[nH]c2=O)cc1	1.3
C1=C(c2c[nH]c3ccccc23)CCN(Cc2ccccc2)C1	1.0
COC(=O)C1=C(c2ccccc2)C[C@@H]2CC[C@H]1N2C(=O)N1CCC(O)CC1	-0.4
CN1CCN(c2ccc([N+](=O)[O-])cc2Cl)CC1	-1.6
CCOC(=O)[C@@]1(C#N)[C@@H]2C=CC(C(N)=O)=CN2[C@@H](C(N)=O)[C@@H]1c1cccc(Cl)c1	1.4
Cc1c2cnn(CC(=O)N3CCC4(CC3)OCCO4)c(=O)c2c(C)n1Cc1ccccc1F	-1.3
CN1C(=O)N(C)C(=O)C2(Cc3ccccc3N3CCOCC32)C1=O (stereo not given)	-1.9
CCOP(=O)(CN(CC)CCNP(=O)(OCC)OCC)OCC	-1.0
c1cncc(C2CCCN2)c1 (stereo not given)	0.1
CC(C)Nc1ccc(Nc2ccccc2)cc1	-0.6
COc1ccc(CC2(CCc3ccccn3)C(=O)NC(=O)N(c3ccccc3C)C2=O)cc1OC (stereo not given)	-2.8
Cc1ccc2nc3c(cc2c1)CC1(C(=O)N(C)C(=O)N(C)C1=O)C1COCCN31 (stereo not given)	-2.4
COc1ccc(CN2CCN(C(=O)Cc3ccccc3)CC2)c(OC)c1	-0.9
Cc1ccc(CN2C3CCCC2CC(NC(=O)Nc2cccc(F)c2)C3)cc1 (stereo not given)	0.2
CN(C(=O)c1ccco1)C1(c2ccccc2Cl)CCCCC1=O (stereo not given)	0.1
COc1ccc(OCC(=O)N2CCCC(N3CCN(c4ccccc4C)CC3)C2)cc1 (stereo not given)	1.0
CC(=O)c1c(C)n(Cc2ccccc2)c2ccc(O)cc12	-0.9
Fc1ccc2c(c1)nnn2C1CCN(Cc2nnnn2C2CCCCC2)CC1	-0.4
CC(C)c1ccc(-n2c(O)c(C=NC(CCS(C)=O)C(=O)O)c(=O)[nH]c2=S)cc1 (stereo not given)	-0.9
CC1C2Cn3c(nc4ccccc43)C1N(C)O2 (stereo not given)	-0.8
COc1ccccc1N(CC(=O)NC1CCCC1)C(=O)c1cnn(C(C)C)c1	-1.6
O=C1C(c2ccccc2)=C(N2CC2)c2ccccc21	-0.7

Given with each value named: part of the list above.
> COC(=O)c1ccc(N2C(=O)CC(N3CCC(n4c(=O)[nH]c5ccccc54)CC3)C2=O)cc1 (stereo not given)
  STK33 kinase inh: -1.0
> Cn1c(N)c(C(=O)COC(=O)Cc2ccccc2)c(=O)n(C)c1=O
  STK33 kinase inh: 0.4
> CN1C(=O)NC(=O)/C(=C\c2ccc([N+](=O)[O-])o2)C1=O
  STK33 kinase inh: 1.1
> O=c1[nH]c(=O)n(Cc2ccccc2)c(O)c1C=NCCN1CCNCC1
  STK33 kinase inh: -1.7

Some of the entries so far, with each value named.
Molecule: Cc1ccc(CN2C3CCCC2CC(NC(=O)Nc2cccc(F)c2)C3)cc1 (stereo not given)
  STK33 kinase inh: 0.2

Molecule: CN(C(=O)c1ccco1)C1(c2ccccc2Cl)CCCCC1=O (stereo not given)
  STK33 kinase inh: 0.1

Molecule: COc1ccc(OCC(=O)N2CCCC(N3CCN(c4ccccc4C)CC3)C2)cc1 (stereo not given)
  STK33 kinase inh: 1.0

Molecule: CC(=O)c1c(C)n(Cc2ccccc2)c2ccc(O)cc12
  STK33 kinase inh: -0.9

2 entries from above, set out differently.
> COc1ccc(CC2(CCc3ccccn3)C(=O)NC(=O)N(c3ccccc3C)C2=O)cc1OC (stereo not given)
  STK33 kinase inh: -2.8
> Cc1ccc2nc3c(cc2c1)CC1(C(=O)N(C)C(=O)N(C)C1=O)C1COCCN31 (stereo not given)
  STK33 kinase inh: -2.4

Next results:
SMILES	STK33 kinase inh
O=C1NC(=O)N(c2ccc3c(c2)OCO3)C(=O)/C1=C/c1cccs1	-0.6
O=C1CN=C(c2ccccc2F)c2cc(Cl)ccc2N1	-0.6
COc1cccc(-n2c(CN3CCN(C)CC3)nc3ccc([N+](=O)[O-])cc3c2=O)c1	0.5
CC(=NCC1CCCO1)c1c(O)n(Cc2ccccc2)c(=O)[nH]c1=O (stereo not given)	-0.7
CC1(C)CN=C(Nc2nc3ccccc3s2)S1	0.1
C[N+]1(C)CCC(OC(=O)C(c2ccccc2)c2ccccc2)CC1	-0.8
CC(c1ccccc1)(c1ccccc1)c1ccncc1	0.7
CCOP(=O)(OCC)C(NC(=O)c1ccc(C)cc1)=C(Cl)Cl	-0.8
CCCCOCCCn1c(N)c(C(=O)OCCOC)c2nc3ccccc3nc21	0.1

An excerpt, and most or all hits are left out here.
